CHO-K1 Ca antag: nonselective inhibitor or artifact in parental CHO-K1 cells; ATP-induced calcium, Fluo-8 fluorescence; inhibition, % at 3 µM; 0.6% of 360,000 active;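 active = inhibition above a per-plate cutoff, the plate's mean sample inhibition plus 3 SD, cut at about 24% in these data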;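 note: 0% = DMSO plus EC80 ATP and 100% = DMSO alone without ATP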
M4 antag: antagonists of human muscarinic M4 receptor (CHRM4). CHO-hM4 cells, ACh EC80, Fluo-8 calcium fluorescence. P08173. 0.73% of 360,000 active. inhibition, % at 3 µM. AID 624125;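 active = inhibition above its plate's cutoff, the mean inhibition of sample wells plus 3 SD, cut at about 27% in these data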;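 note: 0% = acetylcholine EC80 with DMSO and 100% = DMSO without agonist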
Target sequence (P08173 whole entry, looked up): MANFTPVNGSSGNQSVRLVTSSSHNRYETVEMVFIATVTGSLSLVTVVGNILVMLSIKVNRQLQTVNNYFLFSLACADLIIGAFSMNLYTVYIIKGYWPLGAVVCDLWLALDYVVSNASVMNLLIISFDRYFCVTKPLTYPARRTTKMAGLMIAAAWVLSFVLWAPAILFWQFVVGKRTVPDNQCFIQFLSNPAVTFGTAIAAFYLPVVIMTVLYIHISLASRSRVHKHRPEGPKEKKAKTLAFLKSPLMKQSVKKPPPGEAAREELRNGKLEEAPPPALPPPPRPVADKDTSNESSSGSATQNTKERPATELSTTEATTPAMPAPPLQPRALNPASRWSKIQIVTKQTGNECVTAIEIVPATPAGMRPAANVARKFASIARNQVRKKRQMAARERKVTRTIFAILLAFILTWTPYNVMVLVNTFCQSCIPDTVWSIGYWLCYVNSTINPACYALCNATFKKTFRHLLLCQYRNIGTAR
CHO parental Ca: counter-screen for OX1R antagonists: effect in parental CHO cells | parental CHO-K1, ATP-induced calcium, Fluo-8 fluorescence | inhibition, % at 5.6 µM | 0.63% of 330,000 active;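 active = inhibition above that plate's mean sample inhibition plus 3 SD, cut at about 26% in these data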;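 note: 0% = ATP-challenged DMSO wells and 100% = DMSO wells without ATP; some compounds past the cut are filed as inactive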
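Material: Parental CHO cells | Reagent: ATP | Compound dosing: Single nominal dose of 5.6 µM per compound | Detection: Intracellular calcium via Fluo-8 no-wash fluorescent dye | Read-out: % inhibition of ATP-induced calcium mobilization | Benchmarks: Low control ATP plus DMSO, high control DMSO only | Replicates: Singlicate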
OXTR potentiate: human OXTR potentiation. P30559. CHO-OTR cells, Fluo-8 calcium fluorescence, potentiator mode; 0% = oxytocin EC15, 100% = EC100. activation, % at 3 µM. 0.061% of 320,000 active. AID 2445;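 active = activation above that plate's cutoff, the mean activation of tested compounds plus 3 SD, cut at about 6.6% in these data, passing the limit was not always enough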;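 note: 100% uses oxytocin at 75 nM as the full agonist control; some results filed as inactive read as strong as hits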
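System: human OTR in CHO cells / Also added: sub-maximal oxytocin, roughly EC15 / Control set: EC15 oxytocin low, 75 nM oxytocin high / Schedule: 6 min compound pre-incubation at room temperature, 100 s kinetic read / Compound: single-point 3.0 µM / Replication: singlicate / Technique: Fluo-8 calcium dye fluorescence / Read-out basis: % activation of max/min ratio relative to oxytocin controls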
M4 ag: CHRM4 agonism in calcium assay. P08173. AID 624127. CHO-K1 hM4/Gqi5, Fluo-8 calcium fluorescence; vehicle 0%, full acetylcholine response 100%. 0.14% of 360,000 active. activation, % at 3 µM;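 active = activation above the run mean over all test wells plus 3 SD, cut at about 32% in these data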;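 note: peak over basal fluorescence ratio per well then scaled between controls; 0% = DMSO wells and 100% = acetylcholine at EC100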
CHO-K1 Ca ag: M1 agonist counterscreen hit in parental CHO-K1 cells | AID 602248 | 0.48% of 360,000 active | activation, % at 3 µM | Fluo-8 calcium fluorescence; scaled to maximal ATP response, vehicle zero; in the data active = activation above about 15%;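 note: untransfected CHO-K1 host cells lacking M1 receptor as counterscreen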
Active calls of the source: *; · = no result given; & = joins results of further samples.

Compound,CHO-K1 Ca antag,M4 antag,CHO parental Ca,OXTR potentiate,M4 ag,CHO-K1 Ca ag
O=C(O)c1cccnc1,7.3,-6.4,-3.2,0.3,5.6,1.0
OC[C@@H](O)[C@@H](O[C@@H]1O[C@H](CO)[C@H](O)[C@H](O)[C@H]1O)[C@H](O)[C@@H](O)CO,0.6,-6.5,-1.6,-2.9,0.4,0.9
OCCO,0.3,-2.8,-9.8,-2.8,1.6,0.0
Nc1ncnc2c1ncn2[C@@H]1O[C@H](CO)[C@@H](O)[C@@H]1O,-6.0,-8.7,-0.5,0.8,3.5,1.2
CCOC(=O)CSc1nc(CC)nc2ccccc12,-19.8,6.0,-9.1,0.6,0.6,0.6
Cn1cnc([N+](=O)[O-])c1Sc1ncnc2nc[nH]c12,-4.0,15.0,-0.3,-0.4,20.9,5.1
CCOc1cccc(C2C(C(=O)c3ccco3)=C(O)C(=O)N2Cc2ccncc2)c1 (stereo unspecified),-4.5,1.6,-0.4,2.0,0.8,0.2
CCN(CC)Cc1cc(Nc2ccnc3cc(Cl)ccc23)ccc1O,10.4&-11.6,0.8&11.5,-10.3&-8.1,-2.2&6.6,1.5&1.4,-0.3&-0.4
c1ccc(C2CN3CCSC3=N2)cc1 (stereo unspecified),-3.9,-17.3,-6.8,2.0,1.3,1.0
C=CC[N@@+]12CC[C@]34c5ccccc5N5/C=C6\C7N(/C=C(\C53)[C@@H](C[C@@H]41)/C(=C/CO)C2)c1ccccc1[C@@]71CC[N@@+]2(CC=C)C/C(=C\CO)[C@@H]6C[C@@H]12 (stereo partly specified),8.6,5.3,1.9,-5.3,-1.0,-0.1

Remaining list, next part:
Compound,CHO-K1 Ca antag,M4 antag,CHO parental Ca,OXTR potentiate,M4 ag,CHO-K1 Ca ag
O=c1[nH]c(=O)n([C@H]2C[C@H](O)[C@@H](CO)O2)cc1C(F)(F)F,-13.9,-7.5,-3.0,-1.8,0.3,0.8
CC(C)c1ccc2c(c1)CCC1C(C)(CN)CCCC21C (stereo unspecified),4.3,9.8,2.5,-2.9,15.4,8.6
OC(CCN1CCCCC1)(c1ccccc1)C1C[C@@H]2C=C[C@H]1C2 (stereo partly specified),-0.7,99.2*,-15.3,-0.9,0.8,-0.1
COc1cc(Cc2cnc(N)nc2N)cc(OC)c1OC,11.3&-5.0,-0.4&-3.1,-10.2&-12.1,-5.2&-3.1,0.7&0.4,-0.3&-0.1
Cc1cccc(C)c1NC(=O)CN1CCN(CCCC(c2ccc(F)cc2)c2ccc(F)cc2)CC1,-5.2,8.1,9.1,-9.8,16.9,4.8
CN1CCCC(n2nc(Cc3ccc(Cl)cc3)c3ccccc3c2=O)CC1 (stereo unspecified),-8.1,2.1,-25.0,-0.3,5.3,1.5
CN1CCN2c3ncccc3Cc3ccccc3[C@@H]2C1,-9.1,10.4,-10.4,-5.7,0.9,0.6
CC(C)c1ccc2c(c1)CC[C@H]1[C@](C)(CN)CCC[C@]21C,-7.2&-3.3,-4.5&-2.5,·,·,11.7&0.6,2.3&1.1
Nc1ccc(S(=O)(=O)Nc2ncccn2)cc1,-5.8,-13.7,-2.0,0.5,0.6,0.8
CC1(C)CC(CC(=O)Nc2ccccn2)C(=O)O1 (stereo unspecified),-2.2,-1.7,-0.3,-0.4,0.3,0.1

The listing continues:
structure | CHO-K1 Ca antag | M4 antag | CHO parental Ca | OXTR potentiate | M4 ag | CHO-K1 Ca ag
CCN(CC)C(=O)c1cccc(C)c1 | 6.2 | -6.6 | -4.4 | -3.5 | 0.9 | 0.2
CCCc1cc(=O)[nH]c(=S)[nH]1 | -1.9 | -0.9 | -9.3 | -6.5 | 0.0 | -0.3
CCN(CC)S(=O)(=O)c1ccc(C(=O)OCn2nnc3ccccc3c2=O)cc1 | 7.6 | 5.9 | 10.5 | -19.2 | 13.7 | 10.7
OC(CCN1CCCC1)(c1ccccc1)C1CCCCC1 (stereo unspecified) | -9.3 | 98.6* | -15.5 | -3.9 | 1.3 | 0.6
CS(=O)(=O)Nc1ccc([N+](=O)[O-])cc1Oc1ccccc1 | -9.5 | 3.9 | -7.3 | -0.8 | 1.5 | 2.4
CCOc1ccccc1O[C@H](c1ccccc1)[C@H]1CNCCO1 | -13.5 | -4.6 | -17.5 | -8.6 | 12.6 | 1.7
NC(CO)C(=O)NNCc1ccc(O)c(O)c1O (stereo unspecified) | -8.4 | -18.6 | -9.4 | -4.4 | 6.2 | 0.5
NC[C@H](O)c1ccc(O)c(O)c1 | 1.3 | -7.3 | -1.8 | -5.4 | 0.5 | 0.6
CCc1c(C)[nH]c2c1C(=O)C(CN1CCOCC1)CC2 (stereo unspecified) | 8.4 | 0.2 | -6.4 | -4.4 | 0.1 | -0.1

14 entries from above, with values under each structure:
Values in the order – CHO-K1 Ca antag | M4 antag | CHO parental Ca | OXTR potentiate | M4 ag | CHO-K1 Ca ag
CN1CCCC(n2nc(Cc3ccc(Cl)cc3)c3ccccc3c2=O)CC1 (stereo unspecified)
    -8.1 | 2.1 | -25.0 | -0.3 | 5.3 | 1.5
CN1CCN2c3ncccc3Cc3ccccc3[C@@H]2C1
    -9.1 | 10.4 | -10.4 | -5.7 | 0.9 | 0.6
CC(C)c1ccc2c(c1)CC[C@H]1[C@](C)(CN)CCC[C@]21C
    -7.2&-3.3 | -4.5&-2.5 | · | · | 11.7&0.6 | 2.3&1.1
Nc1ccc(S(=O)(=O)Nc2ncccn2)cc1
    -5.8 | -13.7 | -2.0 | 0.5 | 0.6 | 0.8
CC1(C)CC(CC(=O)Nc2ccccn2)C(=O)O1 (stereo unspecified)
    -2.2 | -1.7 | -0.3 | -0.4 | 0.3 | 0.1
CCN(CC)C(=O)c1cccc(C)c1
    6.2 | -6.6 | -4.4 | -3.5 | 0.9 | 0.2
CCCc1cc(=O)[nH]c(=S)[nH]1
    -1.9 | -0.9 | -9.3 | -6.5 | 0.0 | -0.3
CCN(CC)S(=O)(=O)c1ccc(C(=O)OCn2nnc3ccccc3c2=O)cc1
    7.6 | 5.9 | 10.5 | -19.2 | 13.7 | 10.7
OC(CCN1CCCC1)(c1ccccc1)C1CCCCC1 (stereo unspecified)
    -9.3 | 98.6* | -15.5 | -3.9 | 1.3 | 0.6
CS(=O)(=O)Nc1ccc([N+](=O)[O-])cc1Oc1ccccc1
    -9.5 | 3.9 | -7.3 | -0.8 | 1.5 | 2.4
CCOc1ccccc1O[C@H](c1ccccc1)[C@H]1CNCCO1
    -13.5 | -4.6 | -17.5 | -8.6 | 12.6 | 1.7
NC(CO)C(=O)NNCc1ccc(O)c(O)c1O (stereo unspecified)
    -8.4 | -18.6 | -9.4 | -4.4 | 6.2 | 0.5
NC[C@H](O)c1ccc(O)c(O)c1
    1.3 | -7.3 | -1.8 | -5.4 | 0.5 | 0.6
CCc1c(C)[nH]c2c1C(=O)C(CN1CCOCC1)CC2 (stereo unspecified)
    8.4 | 0.2 | -6.4 | -4.4 | 0.1 | -0.1

Not all compounds are listed; the hit share may differ from the screen's.
